Screening data from PubChem BioAssay.
Mtb hypoxia inh: PubChem AID 1159583 | 300,000 compounds, 0.1% hits | M. tuberculosis hypoxia-regulated fluorescent reporter, fluorescence | fluorescence inhibition, % (concentration not given with the values);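 active = 35 to 45% if threefold the growth effect, above 45% if 1.5-fold the growth effect; inactive = the rest, general growth blockers included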;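 also: wells of about 50 µL received 100 nL stock; 0% = vehicle wells and 100% = reference inhibitor wells; whole bacteria with a GFP reporter of the hypoxia response; strong numbers were not always called active; many hits fall short of the cut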
ugtP null kill: growth inhibition of ugtP-null S. aureus, primary screen, RN4220 ugtP deletion, OD600; 16 h; some inactives read as strong as hits; growth inhibition, % (concentration not given with the values); 330,000 compounds, 0.54% hits;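 active = z-score under -3 and OD600 up to 0.15 on both plates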;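 also: plate controls were untreated wells for no effect and antibiotic for full effect; wells of about 80 µL received 100 nL stock; the first replicate is given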
PrP UTR inh: inhibition of PrP 5' UTR reporter expression | inhibition, % (concentration not given with the values) | AID 488862, 2010 | 340,000 compounds, 0.35% hits | cell-based PrP 5' UTR mRNA reporter, plate reader;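 active = every replicate at 50% or more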;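 also: 0 = median of the neutral control wells; tested in H4 reporter cells; numbers are from one replicate; inactives centre near -14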
BJeLR lethal: MLPCN primary cell-based screen for lethality selective to Ras in HRASV12 cells; inhibition, % (no concentration beside the values); 300,000 compounds, 0.17% hits; BJeLR (HRASV12) viability, CellTiter-Glo ATP luminescence, 48 h; reference of the scale not given here; AID 1554, 2009;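 active = replicate mean above 50%; inconclusive = above 50% but judged a plate artefact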;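 also: 50 nL library stock added to about 25 µL; numbers are from one replicate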
RN4220 kill: growth inhibition of S. aureus RN4220, primary screen, OD600 | 16 h | inhibition, % (test concentration not listed) | 330,000 compounds, 0.33% hits | AID 1259311, 2017;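 active = z-score of -3 or lower and OD600 up to 0.18 on both plates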;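 also: plate controls were untreated cells for no effect and reference antibiotic for full effect; stock transfer was 100 nL into about 80 µL; one replicate is shown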
Bead autofluor: flagged as autofluorescent in microsphere protease counterscreen | compound autofluorescence counterscreen, microsphere flow cytometry; hits give high values | 360,000 compounds, 3.1% hits | fluorescence intensity (concentration not given with the values);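 active = at least 3 SD above the mean of all compounds, about 16000 in these data; inconclusive = too few beads counted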;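 also: 100 nL of 1 mM stock went into each well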
Mtb hypoxia inh growth: recorded beside Mtb hypoxia inh, whose call it bears; growth inhibition, %; measured here: M. tuberculosis growth (absorbance);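 0% = vehicle and 100% = reference antibiotic; read after six days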
The depositor's hits bear a star; ? = inconclusive; · = not tested or not shown.

SMILES | Mtb hypoxia inh | Mtb hypoxia inh growth | ugtP null kill | PrP UTR inh | BJeLR lethal | RN4220 kill | Bead autofluor
COCCn1c(C)cc(C(=O)CSc2nc(C)cc(C)c2C#N)c1C | · | · | 10 | -14 | -4 | 4.7 | 4190
O=C(Nc1cccc([N+](=O)[O-])c1)C1COc2ccccc2O1 (stereo not drawn) | 7 | -3 | 11 | -21 | 6 | 6.8 | 3915
COc1cc(OC)c(C2=NOC(C(=O)N3CCc4ccccc4C3)C2)cc1Cl (stereo not drawn) | -1 | 14 | 0 | -8 | -23 | 0.9 | 10998
Oc1ccc2ccc3cccc[n+]3c2c1 | 9 | 5 | -1 | -16 | 2 | 5.9 | 4222
O=c1c2c3c(sc2nc2n1CCC2)CCCCC3 | 3 | 13 | 6 | -7 | -8 | 12 | 4163
CC(C)=CC(=O)Nc1nnc(-c2cccnc2)s1 | · | · | 3 | -24 | 4 | 1.7 | 4596
Cc1cc(Br)ccc1NC(=O)CCS(=O)(=O)c1cccc2nonc12 | 7 | 11 | 5 | -1 | 6 | 3.0 | 5997
COc1ccc(S(=O)(=O)Nc2ccc(S(=O)(=O)Nc3nccs3)cc2)cc1 | -5 | 12 | -5 | 1 | 1 | 3.2 | 3642
C[n+]1ccccc1/C=C1\Sc2ccccc2N1CCO | 4 | 1 | 3 | -14 | -2 | 0.2 | 3917
CN(CC(=O)Nc1cccc(F)c1)C(=O)c1ccccc1Sc1ccccc1C#N | 9 | 2 | 1 | -16 | · | 14 | 4076
Cc1ccc(-n2c(C)cc(C3N=C(N)Nc4nc5ccccc5n43)c2C)c(C)c1 (stereo not drawn) | 14 | 13 | 17 | -15 | -5 | -6.4 | 4796
O=[N+]([O-])c1cc(/C=N/N2CCN(C3c4ccccc4-c4ccccc43)CC2)ccc1Cl | · | · | · | -19 | 7 | · | 2102
COc1ccc(C(=O)NCCc2ccccc2)cc1[N+](=O)[O-] | 7 | 3 | 8 | -17 | -3 | 3.0 | 4100
COc1ccc(S(=O)(=O)NCCC(=O)N2CCCC2)cc1N(C)S(C)(=O)=O | 5 | -3 | 14 | -23 | 5 | 1.0 | 3974
CCOC(=O)CSc1nc(NCc2ccco2)c2ccccc2n1 | 8 | 3 | 2 | · | -1 | 1.9 | 10079
Cc1nc(C)c(-c2ccn(C(=O)NC(C)C)n2)s1 | 2 | 5 | -10 | -6 | -6 | 2.5 | 3164
CCc1ccc(N(CC)C(=O)c2ccc3c(Cl)c4c(nc3c2)CCC4)cc1 | 6 | 2 | 15 | 0 | -12 | 2.1 | 4629
COc1cccc(C(=O)N2CCN(C(=O)Cc3ccccc3)CC2)c1 | -2 | -1 | -1 | -21 | 8 | 4.7 | 5018
CCCOc1c(Br)cc(C2C3=C(CCCC3=O)N(C)C3=C2C(=O)CCC3)cc1OC | -16 | 5 | 4 | -26 | -9 | -1.9 | 2141
COc1ccccc1NC(=O)Cn1c([N+](=O)[O-])cnc1C | -1 | -2 | 11 | -33 | 6 | 3.0 | 3678
CCOC(=O)c1cnc(SCc2nc(N)nc(Nc3ccccc3OC)n2)nc1N | 4 | 7 | -4 | · | 10 | 1.8 | ·
Cc1ccc(C2C3=C(CC(C)(C)CC3=O)Nc3[nH]c(=S)[nH]c(=O)c32)cc1 (stereo not drawn) | 0 | 9 | -1 | -15 | · | 3.3 | 9153
O=C(NCCCO)/C(=C\c1cn(-c2ccccc2)nc1-c1cccnc1)NC(=O)c1ccccc1 | -1 | 1 | 6 | -18 | 5 | 2.1 | 2029
COc1ccc(C2SCCN2S(=O)(=O)c2ccc(F)cc2)cc1OC (stereo not drawn) | 9 | 6 | 13 | -31 | -12 | 5.2 | 10018
O=C(NC1CCN(S(=O)(=O)c2ccc(Cl)cc2)CC1)C1CCCCC1 | -13 | -2 | 6 | -12 | -1 | 4.0 | 5489
COC(=O)C1=C(c2ccccc2)CC2CCC1N2C(=O)NCc1cccc2ccccc12 (stereo not drawn) | 19 | 9 | 9 | · | · | 0.1 | ·
CCOc1ccc(C(O)(CCC(C)C)C(CN2CCOCC2)c2ccccc2)cc1 (stereo not drawn) | -7 | 5 | -1 | -4 | -8 | -4.7 | 3573
O=C(Nc1ccccc1C(=O)NCCCN1CCOCC1)c1ccccc1 | 8 | -5 | -1 | -23 | 3 | 0.6 | 4737
COc1ccc(NC2=NCC(Cc3ccc(Br)cc3)S2)cc1 (stereo not drawn) | -15 | 2 | -24 | -18 | 2 | -9.0 | 2041
CN(Cc1cccs1)C(=O)c1cc(S(=O)(=O)N2CCOCC2)ccc1F | 12 | 0 | 3 | -11 | · | 2.4 | 3907
COc1ccc(Br)cc1CN(C)CC(=O)NCCc1ccc(S(N)(=O)=O)cc1 | 0 | 9 | 11 | -17 | 4 | 0.1 | 5569
Oc1ccc2ccccc2c1/C=N/n1cnnc1 | · | · | · | 1 | 2 | · | 22040*
CO/N=C/C(c1ccc(Cl)nc1)S(=O)(=O)c1ccccc1 (stereo not drawn) | · | · | · | -25 | 4 | · | 3423
COc1ccc(CCNC(=O)C(=O)c2c[nH]c3ccccc23)cc1OC | 4 | 8 | 2 | -14 | -3 | 6.2 | 3801
COc1ccc(OC)c(S(=O)(=O)NN=Cc2ccc3c(c2)OCO3)c1 | 8 | -3 | 9 | · | · | 2.5 | ·
CC(=O)NC(c1ccco1)c1cc(F)c2cccnc2c1O (stereo not drawn) | 9 | 6 | -8 | 1 | · | 11 | 3790

Rewritten with two lines to a compound: entries from further up.
Under each structure – Mtb hypoxia inh | Mtb hypoxia inh growth | ugtP null kill | PrP UTR inh | BJeLR lethal | RN4220 kill | Bead autofluor
Oc1ccc2ccc3cccc[n+]3c2c1
  9 | 5 | -1 | -16 | 2 | 5.9 | 4222
O=[N+]([O-])c1cc(/C=N/N2CCN(C3c4ccccc4-c4ccccc43)CC2)ccc1Cl
  · | · | · | -19 | 7 | · | 2102
CC(=O)NC(c1ccco1)c1cc(F)c2cccnc2c1O (stereo not drawn)
  9 | 6 | -8 | 1 | · | 11 | 3790

Other records.
SMILES | Mtb hypoxia inh | Mtb hypoxia inh growth | ugtP null kill | PrP UTR inh | BJeLR lethal | RN4220 kill | Bead autofluor
CC(C)[C@H](NC(=O)OCc1ccccc1)C(=O)OCC(=O)Nc1ccc(N2CCOCC2)cc1 | 3 | 7 | 7 | -7 | 0 | -0.6 | 6164
CN(C)S(=O)(=O)c1cccc(NC(=O)c2cc3c(=O)n4ccccc4nc3s2)c1 | · | · | · | 5 | 14 | · | 2006
C=CCNc1ncnc2c1ncn2C1OC(CO)C(O)C1O (stereo not drawn) | 6 | 1 | 1 | 1 | 34 | 0.7 | 2833
Nc1ccc(C(=O)Nc2cccc(NC(=O)c3ccc(N)cc3)c2)cc1 | 4 | 13 | 0 | -14 | -23 | 1.7 | 3379
CCC(=O)Nc1nonc1-c1nc2ccccc2n1CCC(C)C | 2 | -1 | 2 | -8 | 2 | 21 | 2530
CCC(CC)C(=O)NN(C(=O)c1ccncc1)C1CC(=O)N(c2ccccc2)C1=O (stereo not drawn) | 9 | 4 | 5 | -13 | -6 | 2.9 | 4388
NNC(=O)c1ccc2ccccc2n1 | 10 | 2 | -2 | -17 | · | 4.5 | 4815
COC(CNC(=O)c1cn(C)c2ccc(S(=O)(=O)N(C)C3CCCCC3)cc2c1=O)OC | -3 | -7 | 9 | -4 | 0 | 4.2 | 4385
CC(C)C(=O)NNC(=O)CSc1nnnn1C(C)C | -15 | -10 | -3 | -21 | -5 | 3.1 | 4777
COc1ccc2nc(C)cc(SCC(=O)NN=Cc3c(OC)ccc4ccccc34)c2c1 | 16 | 12 | 16 | · | · | 3.9 | ·
CNC(=O)c1ccc(C)c(NC(=O)C2=C(C)OCCS2)c1 | -16 | -2 | -2 | -18 | -5 | -0.2 | 3570
C/C(=N\Nc1cccc([N+](=O)[O-])c1)c1cc2ccccc2o1 | · | · | · | -77 | -20 | · | 4639

Four entries picked at random from the list so far:
SMILES | Mtb hypoxia inh | Mtb hypoxia inh growth | ugtP null kill | PrP UTR inh | BJeLR lethal | RN4220 kill | Bead autofluor
C/C(=N\Nc1cccc([N+](=O)[O-])c1)c1cc2ccccc2o1 | · | · | · | -77 | -20 | · | 4639
COc1ccc2nc(C)cc(SCC(=O)NN=Cc3c(OC)ccc4ccccc34)c2c1 | 16 | 12 | 16 | · | · | 3.9 | ·
Nc1ccc(C(=O)Nc2cccc(NC(=O)c3ccc(N)cc3)c2)cc1 | 4 | 13 | 0 | -14 | -23 | 1.7 | 3379
CC(C)[C@H](NC(=O)OCc1ccccc1)C(=O)OCC(=O)Nc1ccc(N2CCOCC2)cc1 | 3 | 7 | 7 | -7 | 0 | -0.6 | 6164

(further entries)
SMILES | Mtb hypoxia inh | Mtb hypoxia inh growth | ugtP null kill | PrP UTR inh | BJeLR lethal | RN4220 kill | Bead autofluor
N#Cc1ccccc1S(=O)(=O)N1CCN(C(=O)CN2CCCC2c2cccs2)CC1 (stereo not drawn) | 6 | 3 | 7 | -24 | · | 6.5 | 6979
Cc1ccc(Cc2nnc3n(-c4cccc(C)c4)nc(C(=O)c4ccccc4)n3c2=O)cc1 | 14 | 13 | -8 | -10 | -7 | 0.1 | 5745
c1ccc(-n2ncc3c2ncn2nc(CSc4nc5ccccc5s4)nc32)cc1 | · | · | 1 | -10 | · | 6.6 | 4054
CCN(CC(=O)NC1CCS(=O)(=O)C1)c1ccc(S(=O)(=O)N(CC)CC)cc1[N+](=O)[O-] (stereo not drawn) | 8 | 5 | 2 | -3 | · | 4.3 | 3936
CCc1ccc(NC(=O)CN(c2cc(C)cc(C)c2)S(=O)(=O)c2c(C)[nH]c(=O)[nH]c2=O)cc1 | -2 | 3 | 2 | -5 | 4 | 0.0 | 5320
COc1ccc(C=NNC(=O)COc2ccc3ccccc3c2)c(C(=O)O)c1OC | 7 | 2 | -1 | · | · | 4.1 | ·
O=C(NCc1ccc(F)cc1)c1cc(S(=O)(=O)N2CCCCC2)ccc1Cl | 6 | 9 | 1 | -10 | · | 1.0 | 3956
COc1ccccc1-c1nnc(SC2CCc3ccccc3NC2=O)s1 (stereo not drawn) | 6 | 6 | 0 | -61 | 9 | 8.8 | 20615*
CCCCN1C(=O)C(=O)N(CC(=O)Nc2sc(CC)cc2C(=O)OCC)C1=O | 3 | -3 | 12 | -5 | 1 | 1.9 | 6036
CCc1ccccc1NC(=O)CN1CCN(C(=O)c2cccc(-n3cnnn3)c2)CC1 | 2 | 2 | 0 | -7 | · | 1.6 | 3387
Cc1cccc(N(C)c2ccc3cc(S(=O)(=O)N4CCCC4)ccc3n2)c1 | 8 | 1 | 4 | -18 | -8 | 4.6 | 5444
COc1cc(OC)c(C2CC(=O)N3CN(c4ccc(C)cc4)CSC3=C2C#N)cc1OC (stereo not drawn) | -3 | 4 | -14 | -30 | 2 | 3.1 | 5744
Cc1ccc2c(=O)c(C(=O)NCc3cccs3)c[nH]c2c1 | 15 | 2 | -1 | -31 | -3 | 4.0 | 5454
CCOC(=O)c1cccc(NC(=O)Nc2ccc(OCC)cc2)c1 | 4 | 12 | -4 | -8 | 4 | 2.0 | 4686
Cc1cccnc1NC(=O)c1c(O)c2ccccc2n(C)c1=O | · | · | 3 | 6 | -9 | -7.6 | 2221
Cc1c(CN2CCCC(C)C2)c(O)n(CCO)c(=O)c1C#N (stereo not drawn) | 8 | 11 | 8 | -25 | -4 | 7.7 | 4075
CCCC(=O)Nc1ccc(C(=O)NCc2ccccc2Cl)cc1 | 8 | 4 | 0 | -21 | 0 | -7.3 | 3185
CC(C)(C)SCCNS(=O)(=O)c1ccc(F)cc1 | 5 | 8 | -7 | -11 | -4 | 0.9 | 12805
O=C(Nn1c(O)c(C=C2N=c3ccccc3=N2)sc1=S)c1cccc(Cl)c1 | 7 | 7 | -18 | -14 | 8 | 13 | 5573
CCc1ccccc1N(CC(=O)Nc1cccnc1)S(=O)(=O)c1ccccc1 | 12 | 1 | -4 | -24 | 5 | 5.3 | 5772
CCC(OC(=O)c1nsc(Cl)c1Cl)C(=O)NC(C)(C)C (stereo not drawn) | -4 | 2 | 1 | -22 | -10 | 6.5 | 3867
Cn1c(=O)c2sccc2n2c(CCCC(=O)NCc3ccc(F)cc3)nnc12 | -12 | -4 | -5 | -20 | -16 | 0.1 | 6271
C=CCOC(=O)Cn1cnc2c(sc3nc(C)cc(C)c32)c1=O | -2 | -1 | 2 | -33 | -5 | 2.4 | 4623
Cc1ccc(NC(=O)c2cn(CCC#N)nc2-c2ccc3c(c2)OCCO3)c([N+](=O)[O-])c1 | 3 | 7 | 6 | -19 | 8 | 3.0 | 2442
N#CCSc1ccccc1NC(=O)COC(=O)CCNC(=O)c1ccc([N+](=O)[O-])cc1 | 3 | 5 | 4 | -7 | · | 3.0 | ?
